HSV augment: increases HSV replication in cells | HSV replication augmentation in cells, fold increase | maximum fold increase | hit rate 0.005% among 220,000 | AID 1956;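 active means peak rise of 1.5-fold or more in the series; tested in PC3 cells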;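 further: first round at 10 µM; read as green reporter fluorescence; hits show the peak of a series up to 25 µM; 1 = signal of infected wells without compound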
PKD1 kinase inh: inhibitors of human PKD1 kinase; inhibition, %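 (about 10 µM by stock and volumes)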; Q15139; PKD1 kinase fluorescence polarization assay; hit rate 0.056% among 200,000;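 active means inhibition of 50% or more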;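 further: controls were vehicle for no effect and a reference inhibitor for full effect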
RGS16-Gao HTS: RGS16-Galphao interaction regulator (human); bead-based flow cytometry RGS16-Galphao binding, fluorescence; actives lie on both sides; binding response (% of control), % at 10 µM; hit rate 0.38% among 220,000; AID 1441;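 active means below 25% or above 175%, edge rows of some plates excepted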;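 further: Galphao activated by GDP with aluminum fluoride before binding; 100% = wells without compound and 0% = beads without RGS; some results beyond the cut were filed as inactive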
Target sequence (O15492 whole entry, looked up): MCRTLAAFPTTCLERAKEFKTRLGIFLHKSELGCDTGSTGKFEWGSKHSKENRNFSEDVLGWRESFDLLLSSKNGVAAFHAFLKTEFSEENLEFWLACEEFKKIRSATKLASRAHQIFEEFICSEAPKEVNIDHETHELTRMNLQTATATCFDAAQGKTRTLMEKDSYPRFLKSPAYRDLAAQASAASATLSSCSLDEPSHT
Target sequence (P09471 whole entry, looked up): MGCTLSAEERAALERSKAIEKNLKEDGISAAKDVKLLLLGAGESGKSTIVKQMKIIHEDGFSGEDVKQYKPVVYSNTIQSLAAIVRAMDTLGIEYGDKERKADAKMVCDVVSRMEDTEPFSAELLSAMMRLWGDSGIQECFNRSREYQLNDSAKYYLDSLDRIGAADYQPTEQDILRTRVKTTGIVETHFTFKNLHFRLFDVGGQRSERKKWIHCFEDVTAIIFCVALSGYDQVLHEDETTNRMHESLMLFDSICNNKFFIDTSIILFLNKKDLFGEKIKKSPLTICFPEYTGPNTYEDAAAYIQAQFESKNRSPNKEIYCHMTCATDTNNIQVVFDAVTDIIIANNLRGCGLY
INS promoter inh: TRM-6 insulin promoter activity inhibition. TRM-6 cells (human fetal islet line), insulin promoter-eGFP reporter, imaging; reporter expression induced with tamoxifen. inhibition, % at 2 µM. hit rate 0.9% among 130,000. AID 1273;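 active means inhibition above the mean plus 3 SD, with well images judged a real hit on visual review, cut at about 60% in these data, passing the limit was not always enough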
GALR2 agonist: agonists of human galanin receptor 2 (GALR2); GALR2-expressing cells, agonist activation read-out; AID 803; activation, %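 (tested at 5 µM)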; hit rate 0.48% among 140,000;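 active means above mean plus 3 SD of all compounds, about 5% in these data, not always enough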;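 further: 0% = vehicle buffer wells and 100% = reference agonist at full effect; tested in CHO reporter cells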
Target sequence (O43603 whole entry, looked up): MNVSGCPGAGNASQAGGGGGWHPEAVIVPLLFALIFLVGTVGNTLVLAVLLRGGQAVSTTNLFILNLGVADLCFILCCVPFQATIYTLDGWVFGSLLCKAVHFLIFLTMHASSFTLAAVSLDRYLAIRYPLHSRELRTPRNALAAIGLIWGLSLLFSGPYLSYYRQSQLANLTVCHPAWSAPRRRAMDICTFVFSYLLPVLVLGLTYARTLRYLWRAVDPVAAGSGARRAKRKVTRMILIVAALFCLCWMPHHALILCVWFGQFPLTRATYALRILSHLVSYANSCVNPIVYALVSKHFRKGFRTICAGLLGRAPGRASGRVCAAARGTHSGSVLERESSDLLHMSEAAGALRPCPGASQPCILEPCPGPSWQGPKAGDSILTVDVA
INS promoter inh cell count: second read-out of INS promoter inh, no call of its own (marks repeat the call); normalized cell count, %; measured here: cell count, toxicity; reference of the scale not given here;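 cells exposed to compound for 48 h; stained nuclei by imaging scaled within each plate; lower means fewer cells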
HSV augment primary fold: recorded beside HSV augment, whose call it bears; fold increase; compound at 10 µM; measured here: primary screen fold increase 10 uM; tested in PC3 cells;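 GFP signal in the first replicate; 1 = infected wells without compound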
* = called active by the depositor; i = inactive; / = no result given.

SMILES | HSV augment | HSV augment primary fold | PKD1 kinase inh | RGS16-Gao HTS | INS promoter inh | INS promoter inh cell count | GALR2 agonist
CN(NC(=O)c1ccccc1F)c1nc(C(F)(F)F)nc2ccccc12 | i | 0.68 | 2.1 | 97.2 | / | / | /
CCOC(=O)N1CCC(N2CCN(S(=O)(=O)c3ccc4ccccc4c3)CC2)CC1 | i | 1.22 | -3.5 | 100.9 | -5.5 | 97.0 | -3.0
COc1ccc(C(=O)O)cc1N1C(=O)Nc2ccccc2N1O | / | / | 3.2 | 108.2 | 23.1 | 74.1 | /
O=C(CN1C2=NCCCN2c2ccccc21)c1ccc(Cl)cc1Cl | i | 0.62 | -8.6 | 66.1 | -41.7 | 42.3 | -0.4
O=C(O)/C=C/c1ccc(O)c(O)c1 | i | 1.01 | -5.5 | 100.2 | 13.6 | 79.2 | -0.3
CCN1CCN(Cc2c(C)[nH]c3ccc(OC)cc3c2=O)CC1 | / | / | -4.9 | 99.0 | 10.3 | 87.1 | -2.5
C/C=C/c1ccc(OCC(=O)NCc2ccccc2OC)c(OC)c1 | i | 0.94 | 7.8 | 97.1 | / | / | /
CCOC(=O)/C(C(N)=NCc1ccco1)=C(/O)c1ccccc1 | i | 1.03 | -6.4 | 106.9 | -36.4 | 67.3 | -1.8
Cc1ccc(-c2noc(CSc3nnc(Cc4ccccc4)n3-c3cccc(C)c3)n2)cc1 | i | 0.92 | -4.2 | 106.1 | 9.9 | 76.5 | -1.5
NC(=O)COC(=O)c1cc(S(=O)(=O)N2CCOCC2)ccc1N1CCCCC1 | i | 0.98 | 0.8 | 86.3 | / | / | -0.1
COc1cccc(NC(=O)c2nn(-c3ccc(OC)cc3OC)c(=O)c3ccccc23)c1 | i | 0.97 | -10.1 | 101.6 | 28.6 | 85.8 | /
O=C(NCCC1=CCCCC1)C(=O)NCc1ccncc1 | i | 0.99 | -1.5 | 110.6 | -27.8 | 154.4 | /
COc1ccc(S(=O)(=O)NC2CCCC2)cc1Br | i | 0.75 | 2.3 | 100.1 | 44.4 | 125.1 | -2.4
COc1ccccc1N1CCN(CCCCOc2ccc(F)cc2)CC1 | i | 0.93 | 1.2 | 93.0 | -28.6 | 108.5 | -1.2
CCN(c1ccccc1)S(=O)(=O)c1cccc(C(=O)O)c1 | i | 0.89 | -3.5 | 102.4 | / | / | -0.5
O=C(O)c1ccc2ncc(NC(=O)c3ccc(F)cc3)c(=O)n2c1 | i | 0.97 | / | 98.6 | / | / | /
COc1ccc(CC(=O)Nc2ccccc2N2CCCCC2)cc1OC | i | 1.15 | / | 99.8 | / | / | /
CN(C)c1cc(N/N=C/c2ccc(Cl)cc2)nc(N(C)C)n1 | i | 0.72 | 4.6 | 107.2 | 58.3 | 137.9 | /
O=C(NCC1CCCO1)C1CC(=O)N(c2ccc(F)c(Cl)c2)C1 (centres undefined) | i | 0.97 | -19.7 | 100.2 | / | / | -2.4
Cc1[nH]c2c(C)cccc2c1CN1CCC(CO)(Cc2ccccc2)CC1 | i | 0.82 | / | 97.7 | / | / | /
O=C(CN1C2CCCC1CC(NC(=O)C1CCCCC1)C2)NCc1ccc(F)cc1 (centres undefined) | i | 0.99 | / | 78.8 | / | / | /
CC(=O)Nc1cccc(NC(=O)c2ccc(C(=O)Nc3cccc(NC(C)=O)c3)nc2)c1 | i | 0.8 | -6.4 | 102.8 | / | / | /
COc1ccc(S(=O)(=O)N2CCOC2CNC(=O)C(=O)NCc2cccnc2)cc1OC (centres undefined) | i | 1.05 | / | 101.0 | / | / | /
CCCCNc1nc(-c2ccccc2)c(C(=O)OCC)cc1C#N | i | 0.66 | -7.9 | 105.5 | -43.3 | 87.5 | 0.7
O=C1NC2(CCCCC2)N=C1c1ccc(F)cc1 | i | 1.05 | -10.6 | 105.4 | / | / | -0.3

10 neighbouring compounds from above, quoted:
SMILES | HSV augment | HSV augment primary fold | PKD1 kinase inh | RGS16-Gao HTS | INS promoter inh | INS promoter inh cell count | GALR2 agonist
CN(NC(=O)c1ccccc1F)c1nc(C(F)(F)F)nc2ccccc12 | i | 0.68 | 2.1 | 97.2 | / | / | /
CCOC(=O)N1CCC(N2CCN(S(=O)(=O)c3ccc4ccccc4c3)CC2)CC1 | i | 1.22 | -3.5 | 100.9 | -5.5 | 97.0 | -3.0
COc1ccc(C(=O)O)cc1N1C(=O)Nc2ccccc2N1O | / | / | 3.2 | 108.2 | 23.1 | 74.1 | /
O=C(CN1C2=NCCCN2c2ccccc21)c1ccc(Cl)cc1Cl | i | 0.62 | -8.6 | 66.1 | -41.7 | 42.3 | -0.4
O=C(O)/C=C/c1ccc(O)c(O)c1 | i | 1.01 | -5.5 | 100.2 | 13.6 | 79.2 | -0.3
CCN1CCN(Cc2c(C)[nH]c3ccc(OC)cc3c2=O)CC1 | / | / | -4.9 | 99.0 | 10.3 | 87.1 | -2.5
C/C=C/c1ccc(OCC(=O)NCc2ccccc2OC)c(OC)c1 | i | 0.94 | 7.8 | 97.1 | / | / | /
CCOC(=O)/C(C(N)=NCc1ccco1)=C(/O)c1ccccc1 | i | 1.03 | -6.4 | 106.9 | -36.4 | 67.3 | -1.8
Cc1ccc(-c2noc(CSc3nnc(Cc4ccccc4)n3-c3cccc(C)c3)n2)cc1 | i | 0.92 | -4.2 | 106.1 | 9.9 | 76.5 | -1.5
NC(=O)COC(=O)c1cc(S(=O)(=O)N2CCOCC2)ccc1N1CCCCC1 | i | 0.98 | 0.8 | 86.3 | / | / | -0.1

Following part.
SMILES | HSV augment | HSV augment primary fold | PKD1 kinase inh | RGS16-Gao HTS | INS promoter inh | INS promoter inh cell count | GALR2 agonist
CNC(=O)CSc1nnnn1-c1cc(C)ccc1C | i | 1.02 | -1.4 | 103.7 | 0.0 | 63.4 | -1.2
O=C(Nc1ccc(Cl)c(Cl)c1)Nc1ccc(Br)cc1F | i | 0.74 | -2.5 | 103.5 | 9.1 | 98.2 | 2.1
O=C(Nc1ccccn1)c1cccs1 | i | 1.04 | -4.3 | 101.3 | 0.0 | 64.5 | 0.4
COc1ccc(S(=O)(=O)n2ccc(-c3cnc(-c4ccccc4)s3)n2)cc1 | i | 0.95 | 0.6 | 101.5 | 31.2 | 144.6 | -1.5
COC(=O)N1CCN(c2ccc(OC)cc2)CC1 | i | 1 | -3.7 | 121.9 | 37.5 | 66.7 | -1.7
Cc1nn2c(=O)c(NC(=O)c3ccc(F)cc3)cnc2s1 | i | 0.99 | -2.4 | 100.8 | -6.2 | 81.8 | -3.2
CCC(CC)c1nc2ccccc2c(=O)[nH]1 | i | 0.98 | 5.8 | 154.1 | -8.3 | 84.6 | /
CCCCNc1ccc(C(CC(N)=O)NC(=O)c2ccccc2)cc1[N+](=O)[O-] (centres undefined) | i | 0.83 | / | 98.2 | / | / | /
COc1ccc(C(=O)c2sc(NC(C)C)nc2N)cc1OC | i | 0.77 | 3.3 | 100.3 | 14.3 | 79.1 | -2.9
OC1(c2ccc(F)cc2)CCN(Cc2ccccc2)C1 (centres undefined) | i | 1.05 | 3.6 | 107.2 | / | / | -0.1
CC(C)OCCCNc1ncc2c(n1)CC(c1ccc(N(C)C)cc1)CC2=O (centres undefined) | i | 1.08 | 5.0 | 99.0 | / | / | 0.1
CCCCC(=O)Nc1nnc(-c2ccc(OC)cc2)s1 | i | 0.85 | -5.2 | 102.7 | -372.2 | 45.0 | -2.3
COc1ccc(Cc2nc3ccc(S(=O)(=O)N4CCOCC4)cc3[nH]2)cc1 | i | 0.96 | -3.7 | 76.7 | 48.6 | 56.3 | -4.4
c1ccc(Oc2ncnc3sccc23)cc1 | i | 0.93 | 6.4 | 97.0 | / | / | /
CCOc1cc(C(=O)NCC2CCCO2)cc(OCC)c1OCC (centres undefined) | i | 0.94 | -5.8 | 101.1 | -240.7 | 27.0 | -2.0
Cc1cc(NC(=O)c2cc(-c3ccc(C)c(C)c3)nc3ccccc23)no1 | i | 1.01 | -13.1 | 120.3 | 28.6 | 78.1 | -0.9
CCN(Cc1ccccc1)C(=O)COC(=O)c1cc(=O)[nH]c2ccccc12 | i | 1.02 | -3.4 | 96.2 | -54.5 | 130.3 | /
CNc1nc(N)c(C(=O)Nc2cc(C)on2)s1 | i | 0.94 | -2.5 | 105.3 | -14.3 | 83.5 | /
COc1ccc(-c2nnc(-c3cc(OC)c(OC)c(OC)c3)o2)cc1OC | i | 0.96 | 2.5 | 39.4 | -343.8 | 99.3 | -1.1
CCCCCNC(=O)c1ccccc1SC | i | 1.07 | 1.0 | 100.5 | 0.0 | 102.6 | -1.0
COc1ccc(NC(=O)Cc2c(F)c(F)c(F)c(F)c2F)cc1OC | i | 0.96 | / | 100.4 | / | / | /
COc1ccc(NC(=O)CC2SC(=N)N(c3ccccc3)C2=O)c(OC)c1 (centres undefined) | i | 0.94 | -2.2 | -5.4* | -118.2 | 71.9 | /
CCOc1ccccc1NC(=O)Nc1ccc(Br)cc1C | i | 0.88 | 0.3 | 92.4 | / | / | /
CC(C(=O)NC1CC(C)(C)NC(C)(C)C1)c1ccc([N+](=O)[O-])cc1 (centres undefined) | i | 0.93 | 2.1 | 102.3 | / | / | /
COCCNC(=O)c1ccccc1NC(=O)c1cc(OC)cc(OC)c1 | i | 0.92 | -16.0 | 103.3 | -46.7 | 61.5 | 0.9
Other structures:
SMILES | HSV augment | HSV augment primary fold | PKD1 kinase inh | RGS16-Gao HTS | INS promoter inh | INS promoter inh cell count | GALR2 agonist
COc1ccc(OC)c(NC(=O)Cn2c(=O)n(CC(=O)NCc3ccco3)c(=O)c3ccccc32)c1 | i | 0.76 | 1.6 | 103.3 | -9.7 | 53.5 | -1.5
CNC(=O)COC(=O)Cc1ccc(Cl)cc1 | i | 0.98 | -2.5 | 97.4 | / | / | /
Cc1nc(Cl)sc1C(=O)Nc1cccc2ccccc12 | i | 0.9 | -5.3 | 95.0 | 33.3 | 126.9 | -1.2
ON=Cc1cccn1-c1ccccc1 | i | 0.91 | 7.4 | 106.9 | / | / | -2.0
CC(=O)NC(Cc1ccc(F)cc1)C(=O)N1CCN(C(=O)NCc2ccccc2)CC1 (centres undefined) | i | 1.07 | 1.5 | 98.2 | 57.1 | 86.1 | -1.2
Clc1ncc(Cn2cccn2)s1 | i | 0.92 | -0.6 | 97.8 | / | / | /
c1ccc(C2OCC3(CO2)COC(c2ccccc2)OC3)cc1 (centres undefined) | i | 0.85 | -9.0 | 98.5 | -96.8 | 111.8 | -4.0
COc1cccc(CNC(=O)C2CCN(C(=O)N(C)C)CC2)c1 | i | 0.83 | -3.4 | 95.5 | -23.5 | 65.7 | -2.5
COC(=O)c1ccc(C(=O)OC)c(NC(=S)N2CCCC(C)C2)c1 (centres undefined) | i | 0.97 | -13.0 | 72.8 | 17.2 | 136.2 | -1.1
S=C(NC1CCCCC1)N1CCn2cccc2C1c1cccnc1 (centres undefined) | i | 0.91 | -0.4 | 102.1 | -141.7 | 53.2 | /
Cc1cccc(Nc2nnc(SCC(=O)Nc3ccccc3[N+](=O)[O-])s2)c1C | i | 0.9 | -9.2 | 102.2 | 38.7 | 100.5 | -0.3
C=CCOC(=O)C(=O)/C=C/c1coc2ccccc2c1=O | i | 0.91 | 4.8 | 93.7 | / | / | /
COc1ccc(-c2[nH]c(-c3ccc(F)cc3)nc2SCC(=O)NCc2ccco2)cc1OC | i | 0.84 | 0.1 | 97.5 | / | / | 0.4
c1cncc(-c2nnc3sc(-c4ccco4)nn23)c1 | i | 1.27 | -3.6 | 100.9 | 17.9 | 82.6 | -0.5
CC1(C)CC(=O)C=C(NCCN2CCN(C(=S)Nc3ccc(F)cc3)CC2)C1 | i | 1.42 | / | 103.3 | / | / | /
CCOC(=S)N/C(=N\S(=O)(=O)c1ccc(C)cc1)c1ccccc1 | i | 0.83 | -6.8 | 93.9 | 4.2 | 124.1 | -3.1
O=C(Nc1c(S(=O)(=O)c2ccccc2)csc1Br)c1ccccc1Cl | i | 1 | / | 95.7 | / | / | /
O=C(Cn1cc2c(n1)CCCCC2)N1CCCCC1 | i | 1.09 | 0.1 | 107.3 | / | / | -1.4
Cc1csc(N2CCCC2=O)n1 | i | 0.95 | 2.4 | 99.7 | -35.7 | 112.9 | /
CC(=O)c1ccc(-c2ccccc2[C@H]2[C@H]3C=CC[C@@H](C)[C@@H]3C(=O)N2Cc2ccccc2)cc1 | i | 0.75 | / | 105.7 | / | / | /
COc1cc(NC(=O)Cc2nn(C)c(=O)c3ccccc23)cc(OC)c1 | i | 0.97 | -8.3 | 101.2 | -416.7 | 84.5 | -0.6
C=CCn1c(CCCOc2ccc(Cl)cc2Cl)n[nH]c1=S | i | 0.84 | -0.8 | 98.7 | -68.8 | 146.4 | -0.7
COC(=O)c1ccc(CSc2nc(C)nc3c2c(=O)n(C)c(=O)n3C)o1 | i | 0.96 | -8.8 | 101.8 | / | / | /
NC(=O)C1(N2CCCCC2)CCN(C2CC(=O)N(Cc3ccc(N4CCCC4=O)cc3)C2=O)CC1 (centres undefined) | i | 0.77 | 2.4 | 101.0 | -47.2 | 71.9 | -1.3
